# Assay outcomes from PubChem.
# TAR Tat displ: HIV-1 TAR-Tat binding disruption; HIV-1 TAR RNA, Tat peptide displacement FRET; active compounds read high; z-score (test concentration not listed); 0.6% of 100,000 active; AID 1259389;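 note: score is relative to mean and SD of negative controls; some compounds called inactive have numbers as strong as hits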
# CDC25B-CDK2 inh: human CDC25B-CDK2/CyclinA binding inhibition; P30305+P24941; 0.72% of 94,000 active; HTRF CDC25B-CDK2/CyclinA binding, anti-His/anti-Flag; active compounds read high; z-score (no concentration beside the values); AID 1259370;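 note: score is relative to mean and SD of negative controls; strong numbers were not always called active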
# Numbers without * were called inactive; nt = not tested or not shown.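 Rule for the calls: active = z-score from 3 up in half or more of its runs; inactive = the rest.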
# Start of the listing, in advance:
Compound	TAR Tat displ	CDC25B-CDK2 inh
CC(C)c1nc2sc3c(NCC4CCCO4)ncnc3c2c2c1COC(C)(C)C2 (stereo not drawn)	0.15	1.8
Cc1nn(-c2nc3ccccc3[nH]2)c2c1C(c1ccc(F)c(Br)c1)CC(=O)N2 (stereo not drawn)	2.1	nt
Clc1cccc(Cl)c1Cn1nnc(N2CCOCC2)n1	nt	-1.1
Cc1cc(Cl)ccc1OCCCC(=O)NO	3	-2.6

# The listing, from the start:
Compound	TAR Tat displ	CDC25B-CDK2 inh
CC(C)c1nc2sc3c(NCC4CCCO4)ncnc3c2c2c1COC(C)(C)C2 (stereo not drawn)	0.15	1.8
Cc1nn(-c2nc3ccccc3[nH]2)c2c1C(c1ccc(F)c(Br)c1)CC(=O)N2 (stereo not drawn)	2.1	nt
Clc1cccc(Cl)c1Cn1nnc(N2CCOCC2)n1	nt	-1.1
Cc1cc(Cl)ccc1OCCCC(=O)NO	3	-2.6
CCc1nn2cc(-c3ccccc3OC)nc2s1	2.5	0.07
O=C(NCC(O)c1ccccc1)Nc1ccccc1 (stereo not drawn)	nt	-1.5
CC(C)(C)c1ccc(C(=O)Nc2ccc(C(F)(F)F)cc2)s1	nt	-0.61
COCCNC(=O)c1cc2n(n1)CC(C)(C(=O)NC1CCCCC1)N(C)C2=O (stereo not drawn)	1.4	nt
Cn1c(Cc2ccccc2)nc2c(c1=O)C1(CCCCC1)Cc1ccccc1-2	1.1	-0.97
CCc1cc(N2CCN(c3cccc(C)c3C)CC2)n2ncnc2n1	-0.16	3.6
Cc1ccc2oc(SCC(=O)Nc3ccc4c(c3)OCCO4)nc2n1	2.7	nt
CCC(C(=O)NC1CCCC1)n1c2ccccc2c2nc(=O)cc(C)n21 (stereo not drawn)	-2.3	0.22
COc1cn(CC(=O)Nc2ccc3c(c2)OCO3)c(CSc2nccc(C)n2)cc1=O	0.83	nt
CC(=O)Nc1nnc(SCc2cc(=O)n3c(-c4ccccc4)csc3n2)s1	0.7	nt
COc1ccc(Nc2cc(C)c3ccc(O)cc3n2)cc1	-0.75	-1.1
CCC1=NN(C(=O)c2ccc(Cl)cc2)C(O)(C(F)(F)F)C1 (stereo not drawn)	nt	-0.39
CSc1nc2cc(Cl)c(Cl)cc2[nH]1	nt	-0.37
Cc1cc(C)cc(NC(=S)NC2CCCCC2)c1	nt	-1.1
COc1ccc(CCNc2cc3c(nn2)Oc2ccccc2N3C)cc1OC	0.43	-0.88
CC(=O)OC1c2cc(C)ccc2NC(c2ccccc2)C1(C)C (stereo not drawn)	1.5	-1.2
Cc1c(N2C(=O)c3ccc(Br)cc3C2=O)c(=O)n(-c2ccccc2)n1C	nt	-0.53
CC(C)(C)c1ccc(S(=O)(=O)c2cc3cc(Br)ccc3oc2=O)cc1	nt	-0.99
COc1ccc(C2=Nn3c(nnc3-c3ccc(Cl)cc3)SC2)cc1	0.95	nt
COc1cc2cc[n+]3cc4c(OC)c(OC)ccc4cc3c2cc1OC	1.2	nt
CCOC(=O)C1=C(C)NC2=C(C(=O)CCC2)C1c1ccccc1Br (stereo not drawn)	0.69	-0.82
CN(C)c1nc(Oc2ccc(=O)[nH]n2)nc(N2CCCCC2)n1	0.64	-0.84
O=C(O)CC1OC(=O)c2cc3c(cc21)C(=O)OC3CC(=O)O (stereo not drawn)	1.9	-1.2
Cc1ccc(S(=O)(=O)NCCc2csc3nc(-c4ccc(Cl)cc4)nn23)cc1C	0.57	nt
Cc1ccc(C)c(N2C(=O)CCC2(C)C(=O)NC2CCCC2)c1 (stereo not drawn)	-0.93	1.2
CCOC(=O)C(C)NC(=O)CCc1nnc2ccc(N3CCCCC3)nn12 (stereo not drawn)	0.65	nt
CCC(=O)N1c2ccc(S(=O)(=O)CCC(=O)N(CC)c3ccccc3)cc2CC1C (stereo not drawn)	1.9	nt
Cc1c(C(=O)NCCN2CCOCC2)sc2nc3n(c(=O)c12)CCCCC3	-0.43	nt
Cc1cc2cc(CCNC(=O)c3ccc(S(=O)(=O)N4CCCC4)cc3)c(=O)[nH]c2cc1C	nt	-2
CCCCNC(=O)C(=O)NCC1CCCO1 (stereo not drawn)	1.7	-0.06
O=C(Cn1cnc2c(oc3nc4c(cc32)CCCC4)c1=O)Nc1ccccc1	0	nt
COC(=O)c1ccc(OC)c(C#N)c1	nt	-2
Cc1noc2ncnc(N3CCC(C(=O)NCCCN4CCOCC4)CC3)c12	1.7	nt
O=C1C2=C(NC(=S)NC2c2ccc([N+](=O)[O-])cc2)c2ccccc21 (stereo not drawn)	nt	-0.44
CC1(C)Cc2c(sc3[nH]c(=O)n(C4CCCCC4)c(=O)c23)CO1	2.7	-1.5
O=C(Cc1ccc(Br)cc1)NC1CCSC1=O (stereo not drawn)	-0.16	-3
Cc1nc2cccnc2n1CCCNC(=O)NC(C)C	1.1	nt
CCN(CC)S(=O)(=O)c1ccc2c(c1)nc(CN1CCN(C(=O)NC3CCCCC3)CC1)n2C	0.11	nt
CCOC(=O)c1ccc(N2C(=O)c3n[nH]c(C)c3C2c2cccc(Br)c2)cc1 (stereo not drawn)	-0.74	nt
O=C(O)CCCC(=O)Nc1ccccc1SCCS(=O)(=O)c1ccc(Cl)cc1	nt	-0.95
CCCNc1nc(Nc2ccc(C)cc2)c2cnn(C)c2n1	0.53	nt
CN(C)/C=N/c1c(C#N)cnn1-c1ccc(F)c(Cl)c1	nt	0.16
CCOCCOC(=O)COc1ccc2c(=O)c(Oc3ccccc3Cl)coc2c1	nt	-1.2
Cc1ccnc(N2C(=O)CCC2=O)c1	nt	-1.6
Cc1ccc(CN(C(=O)Cc2coc3ccc(C)cc23)C2CCS(=O)(=O)C2)cc1 (stereo not drawn)	2.8	-2.4
c1ccc(N2CC3CCc4ccccc4C3=N2)cc1 (stereo not drawn)	nt	0.56
COc1cc(C(=O)c2cc(Cl)ccc2N)ccc1O	nt	-1.4
Nc1nonc1C(=O)N1CCN(C(=O)c2cccc(F)c2)CC1	1.2	-0.29
CCOc1ccc(/C=C(\C#N)C(=O)N2CCOCC2)cc1	nt	-1.7
CCOC(=O)c1c(NC(=O)C2=CC(c3cccs3)=NS(=O)(=O)N2C)sc(C)c1C	1.5	-1.8
NC(=O)C1CCN(C(=O)C2CC(c3c(F)cccc3Cl)=NO2)CC1 (stereo not drawn)	0.64	1.1
COc1ccc(N2CC(C(=O)NCc3nnnn3-c3ccc(F)c(F)c3)CC2=O)cc1 (stereo not drawn)	0.54	nt
CC(C)(C)c1ccc(C(=O)Nc2c3c(nn2-c2cccc(Cl)c2)CS(=O)C3)cc1 (stereo not drawn)	nt	1.1
Cc1ccc(C(=O)O)cc1Nc1nc2ccccc2n2cnnc12	1.8	-1.7
O=C1CCCN1c1ccc(S(=O)(=O)Nc2noc3ccccc23)cc1	0.28	0.62
CCn1nc(-n2cnnc2)c(NS(=O)(=O)c2ccc(CC(C)C)cc2)c1C	-0.84	-0.2

# The list goes on.
Compound	TAR Tat displ	CDC25B-CDK2 inh
COc1cccc([C@@H]2Nc3ccc(C(=O)O)cc3[C@@H]3C=CC[C@@H]32)c1	14*	2
Cc1cc(C)cc(NS(=O)(=O)c2ccc3c(c2)NC(=O)CCS3)c1	3.1	nt
O=C(O)c1cc2c(s1)CS(=O)(=O)C2	3.1	-2.8
Cc1sc(-c2nc(-c3cccc(F)c3)no2)cc1S(=O)(=O)N1CCc2ccccc2C1	0.01	nt
CSc1ccc(CNc2nc3nc(C)cc(=O)n3[nH]2)cc1	0.03	-0.99
Cc1ncccc1-n1cccc1C(=O)NC1CCCC1	0.86	nt
S=C1N[C@H]2CCCC[C@@H]2N1	nt	-0.6
CN(C(=O)CSc1nc(N)c2c3c(sc2n1)COC(C)(C)C3)c1ccccc1	1	-1.7
CCCCSc1nnc(NC(=O)c2nn(-c3ccc(OCC)cc3)ccc2=O)s1	0.43	-0.48
O=C1c2cccnc2C(=O)N1CCc1ccc(S(=O)(=O)N2CCN(C3CCCCC3)CC2)cc1	0.89	nt
Clc1ccc(-c2cncn2N2CCCCC2)cc1	nt	-3.7
Cc1nn(-c2ccc(N3CCOCC3)nn2)c(=O)c2ccccc12	-6.9	-1
CC(=O)C1C(c2ccc(C)cc2)NC(=O)NC1(O)C(F)(F)F (stereo not drawn)	nt	-2.8
O=C(Nc1ccc(SCc2nc3ccccc3[nH]c2=O)cc1)C1CC1	-1	nt
Cc1[nH]c2ccccc2c1C(=O)CN1CCN(C)CC1	1.5	-2.1
COc1ccc(OC)c(-c2noc(Nc3ccc4c(c3)OCCO4)n2)c1	1.5	nt
CCOC(=O)N1CCC(n2c(SCC(=O)Nc3cc(C)on3)nc3ccccc3c2=O)CC1	1.9	nt
CCOc1ccc(C(C)C)cc1S(=O)(=O)Nc1cccc(-c2ccc(OC)nn2)c1	1.7	nt
Cc1cc2nc(CSc3nnc(N)s3)c(=O)[nH]c2cc1C	-1.4	nt
Cc1c(Cl)cccc1Nc1c(-c2ccsc2)nc2ncccn12	-1.3	-2.3

# Entries of single compounds as entered above:
# CCOc1ccc(C(C)C)cc1S(=O)(=O)Nc1cccc(-c2ccc(OC)nn2)c1 as listed: TAR Tat displ: 1.7; CDC25B-CDK2 inh: nt
# Cc1sc(-c2nc(-c3cccc(F)c3)no2)cc1S(=O)(=O)N1CCc2ccccc2C1 as listed: TAR Tat displ: 0.01; CDC25B-CDK2 inh: nt

# Next section
Compound	TAR Tat displ	CDC25B-CDK2 inh
Cc1ccc(CNC(=O)c2nnn(Cc3ccc(Br)cc3F)c2N)cc1	nt	-0.43
Cc1ccc(C(=O)OCc2cc(=O)n3nc(C(C)C)sc3n2)cc1	-0.6	nt
Cc1nn2c(NCCOCCO)cc(C(C)(C)C)nc2c1-c1ccc(F)cc1	0.56	0.14
O=C(CCS(=O)(=O)c1ccc2c(c1)CCN2C(=O)C1CC1)N1CCN(c2ccccc2F)CC1	-0.32	nt
O=C(NCc1ccccn1)c1ccc(Cl)c(NC2=NC3CS(=O)(=O)CC3S2)c1 (stereo not drawn)	2.1	nt
NC(=O)Cn1c(=O)n(C2CCCCC2)c(=O)c2cccnc21	0	-1.6
Cc1ccn2cc(CNS(=O)(=O)c3ccc4c(c3)OCCO4)nc2c1	0.67	-0.45
O=S(=O)(Nc1cccc(-c2ccc(N3CCCCC3)nn2)c1)c1ccc2c(c1)OCCO2	1.2	nt
O=C(CCc1nnc2ccc(NCCCN3CCCC3=O)nn12)Nc1ccccc1F	2.3	nt
O=C(O)CC1(c2ccccc2)C(=O)c2ccccc2C1=O	0.4	-1.5
Oc1c(C(c2ccc(F)cc2)N2CCCCC2)ccc2cccnc12 (stereo not drawn)	-1.9	-0.28
CC(=O)c1c(C)[nH]c(C(=O)NC2CCCCC2)c1C	nt	-1.6
CCC(C(=O)NCc1ccc(C)o1)n1nc(C)c2sc3ccccc3c2c1=O (stereo not drawn)	-0.67	-0.66
COc1ccc(OC)c(S(=O)(=O)Nc2cc(C)on2)c1	nt	-0.1
Cc1cc(=O)[nH]c(SCc2cc(=O)n3cc(C)sc3n2)n1	0.52	-2.3
CCNC(=O)Cn1nc(-n2cccc2)c2c(C)cc(C)nc21	1.3	nt
Cc1ccccc1C1C=C(c2cccs2)Nc2nnnn21 (stereo not drawn)	nt	-0.31
CC(C)Cc1nc(SCC(=O)N2CCCc3ccccc32)c2c(=O)n(C)c(=O)n(C)c2n1	0.56	nt
COC(=O)c1ccc(C(=O)OC)nc1	1.5	-1
Cc1ccnc(NC(c2ccccc2C)c2ccc3cccnc3c2O)c1 (stereo not drawn)	-0.44	-0.51
Cc1ccc(-c2nnc(-c3cccs3)o2)cc1	-0.92	-0.77
O=C(O)COCC(=O)N1CCC(n2cccc2)CC1	nt	-1.8
CN(Cc1ccccc1)C(=O)CSc1nnc(-c2cccs2)o1	3.3	-1.2
CCC(=O)c1cn(CC(=O)NCC2CCCO2)c2ccccc12 (stereo not drawn)	0.79	-0.45
Cc1nn(CC(=O)NCc2ccc3c(c2)OCO3)c(=O)c2c1sc1ccccc12	2.8	0.9
CCCCN(C)c1nc(C(=O)OCC)nc2onc(C)c12	0.78	nt
COc1ccc(/C=N/N=C(N)N)cc1	nt	-1.3
Cc1[nH]c2c(C)cccc2c(=O)c1CN1CC2(C)CC1CC(C)(C)C2 (stereo not drawn)	nt	-2.3
Cc1cc(=O)[nH]c(N/N=C/c2ccncc2)n1	nt	-0.69
COc1ccc(NC(=O)c2cc3n(n2)C(C(F)(F)F)CC(c2ccco2)N3)cc1OC (stereo not drawn)	-1.7	-0.88
Cc1cc2c(cc1S(=O)(=O)N1CCN(C)CC1)OCC(=O)N2	2.3	nt
C=CCN1C(=O)C2(/C(=C(/O)c3ccc(C)c(F)c3)C(=O)C(=O)N2CCN(C)C)c2ccccc21 (stereo not drawn)	-0.44	0.64
Cc1ccc(S(=O)(=O)N(CC(O)Cn2c3ccc(Cl)cc3c3cc(Cl)ccc32)c2ccccc2)cc1 (stereo not drawn)	nt	-2.7
CC1CN(C(=O)Cn2cc(SCC(=O)N3CCCCC3)c3ccccc32)CC(C)O1 (stereo not drawn)	0	nt
CCOC(=O)CNC(=O)c1cnc(N2CCOCC2)nc1C	1.5	nt
CC1CCCCN1S(=O)(=O)c1ccc2c(c1)oc(=O)n2C (stereo not drawn)	0.31	-0.36
CC(C)NC(=O)c1ccc(N2CCSc3ncccc32)s1	-0.14	nt
CCCCCNC(=O)c1c(O)c2cccc3c2n(c1=O)CC3	1.4	-1.8
Cn1c(=O)c2c(c3ccccc31)OC(=O)CC2c1ccc(Br)cc1 (stereo not drawn)	-0.35	-0.71
